MT1-MMP promoter: MT1-MMP gene expression reporter suppression – cell-based, luciferase reporter, luminescence (AID 618). MT1-MMP promoter luciferase reporter cells, luminescence. calls from a first round at 10 µM; hits with a dose series show EC50 in µM. actives 0.62% (n = 87,000);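 active = over half of the reporter light lost at 10 µM or EC50 under 50 µM; inactive = the rest and hits that failed the dose series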;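 also: actives suppress MT1-MMP promoter-driven transcription so potencies describe inhibitors; HT1080 fibrosarcoma cells; overnight exposure; toxic or luciferase-blocking compounds were not removed from the actives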
WNV protease inh: WNV NS2B-NS3 proteinase inhibition; P06935; WNV NS2B-NS3 protease, fluorogenic substrate Ex360/Em465; stronger effect = lower value; z-score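 (tested at a level between 10 and 100 µM)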; actives 0.18% (n = 65,000);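 active = z-score at -3 or under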;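 also: score is relative to mean and spread of the compound wells of a plate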
Target sequence (P06935 1371-1501 limits assumed): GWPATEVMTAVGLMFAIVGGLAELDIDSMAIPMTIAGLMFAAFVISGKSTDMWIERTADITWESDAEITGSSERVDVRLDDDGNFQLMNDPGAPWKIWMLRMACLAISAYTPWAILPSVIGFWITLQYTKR
Target sequence (P06935 1502-1679 limits assumed): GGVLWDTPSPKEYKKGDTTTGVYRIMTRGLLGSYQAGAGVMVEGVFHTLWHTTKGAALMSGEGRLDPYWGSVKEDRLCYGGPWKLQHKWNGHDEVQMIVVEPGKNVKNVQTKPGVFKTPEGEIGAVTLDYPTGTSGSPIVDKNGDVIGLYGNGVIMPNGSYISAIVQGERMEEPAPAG
Hsc70 ATP site: small molecules displacing fluorescent ligand from Hsc70 – biochemical, fluorescence polarization, primary screen (AID 568); Hsc70 fluorescence polarization, probe displacement; higher % means a stronger effect; strong numbers were not always called active; displacement, % at 20 µM, or IC50 in µM where a hit was titrated; 83,000 tested, under 10 active;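 active = displacement above 50% without optical interference and an IC50 on retest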;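 also: ATPase domain with a fluorescein-tagged ATP probe; 0% = vehicle and 100% = excess ADP; read after one hour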
Active calls of the source: *; i = inactive; . = no result given.

nr	SMILES	MT1-MMP promoter	WNV protease inh	Hsc70 ATP site
1	CCOC(=O)C1=C(C)C(c2ccccc2O)NC(=O)N1 (centres undefined)	i	.	4.0%
2	O=C(Oc1cccc(N2C(=O)CCC2=O)c1)C1CC(=O)N(c2ccc(Br)cc2)C1 (centres undefined)	i	0.44	3.3%
3	CCc1ccc(Nc2cc(C)nc3nc(C)nn23)cc1	i	-0.72	3.5%
4	O=S1(=O)N=C(N2CCc3ccccc3C2)c2ccccc21	i	1.01	3.4%
5	O=C(CNC(=O)c1ccco1)OC(C(=O)c1ccccc1)c1ccccc1 (centres undefined)	i	1.73	2.6%
6	Cn1c(=O)oc2cc(S(=O)(=O)N3CCN(c4cccc(Cl)c4)CC3)ccc21	i	0.58	-21.7%
7	CCCOc1ccc(Cn2c(O)cc(=O)[nH]c2=O)cc1	i	0.4	-10.5%
8	O=C1CC(c2ccccc2)Cc2nc3nc(C(F)(F)F)nn3cc21 (centres undefined)	i	.	1.2%
9	Cc1ccc(C(=O)OC2CCS(=O)(=O)c3sccc32)cc1 (centres undefined)	i	.	-5.3%
10	COCCn1cnnc1SCC(=O)c1ccc(S(=O)(=O)N2CCCC2)cc1	i	1.8	-4.2%
11	Cc1nn(Cc2ccccc2)c2c1C(c1ccco1)C(C#N)=C(N)O2 (centres undefined)	i	0.39	2.2%
12	CSc1cccc(NC(=O)Nc2ccccc2)c1	i	2.05	-6.8%
13	Cc1cc(=O)oc2cc(OCC3CC(c4ccc(Br)cc4)=NO3)ccc12 (centres undefined)	i	.	-2.7%
14	CCN(CC)CCNC(=O)Cn1nc(Cc2cccnc2)c2ccccc2c1=O	i	0.89	1.3%
15	O=C1c2ccccc2NC(c2cnc3ccccc3n2)N1O (centres undefined)	i	-0.54	-5.9%

(next part)
nr	SMILES	MT1-MMP promoter	WNV protease inh	Hsc70 ATP site
16	O=C(Nc1ccccc1C(=O)NC1CCCCC1)c1ccco1	i	.	2.4%
17	CN1C(=O)CC(C(=O)Nc2ccc(F)cc2)SC1=Nc1ccc2c(c1)OCO2 (centres undefined)	i	-0.37	2.1%
18	O=C(CSc1nnc(-c2ccccc2Cl)o1)Oc1ccc(Br)cc1	i	.	2.1%
19	O=C(OCCN1CCCC1=O)c1cncc(Br)c1	i	.	0.5%
20	Cn1ccnc1C(=O)c1cc(=O)c2ccccc2o1	i	1.14	8.8%
21	Cc1cccc(N2CCN(C(=O)c3cc4n(n3)C(C(F)(F)F)CC(c3ccco3)N4)CC2)c1C (centres undefined)	i	2.15	-6.3%
22	Oc1cccc(C=NCc2ccccc2)c1	i	.	2.6%
23	CN1[C@@H](CC(=O)c2ccccc2)CCC[C@H]1C[C@H](O)c1ccccc1	i	-0.55	-1.9%
24	N#CC(C#N)=c1ccc2c(c1)NC1(CCCCC1)N=2	i	-0.34	-4.4%
25	CCOC(=O)CNC(=O)c1nn(-c2cccc(OC)c2)c(=O)c2ccccc12	i	0.19	-4.9%
26	CCOC(=O)c1nn(-c2ccccc2C)c(=O)c(C#N)c1C	i	-0.08	0.8%
27	CCN(C(=O)CN1CCN(c2ccccc2)CC1)c1c(N)n(Cc2ccccc2)c(=O)[nH]c1=O	i	0.6	-2.5%
28	CC1S/C(=C(\C#N)C(=O)NCc2ccco2)N(Cc2ccco2)C1=O (centres undefined)	i	-0.74	-0.4%
29	N#CC1=C(N)Oc2n[nH]c(-c3cccs3)c2C1c1ccco1 (centres undefined)	i	0.62	-76.6%
30	CCOC(=O)C1CCN(c2cc(=O)n(C3CCCCC3)c(=O)[nH]2)CC1	i	-1.76	1.8%

Following part.
nr	SMILES	MT1-MMP promoter	WNV protease inh	Hsc70 ATP site
31	Cc1cc(C)c(C(N)=O)c(Nc2cccc3ccccc23)n1	i	.	-0.5%
32	Cc1csc(NC(=O)c2ccc(C)c(S(=O)(=O)N3CCCCC3)c2)n1	i	-0.42	3.2%
33	CSCC[C@H](NC(=O)OC(C)(C)C)C(=O)N1CCC(C(=O)N[C@@H](C)C(=O)O)CC1	i	0.34	0.2%
34	CC(=O)c1ccc(OC(=O)C2CC(=O)N(c3cccc(C)c3)C2)cc1 (centres undefined)	i	-0.19	3.6%
35	Cc1cc2c(c(=O)n1Cc1cccnc1)C(c1ccccc1)C(C#N)=C(N)O2 (centres undefined)	i	-0.22	0.6%
36	COc1ccc(C2C(C(=O)N3CCN(c4ccccc4)CC3)c3ccccc3C(=O)N2C)cc1OC (centres undefined)	i	.	-1.6%
37	CCOc1ccc(C(=O)Nc2ccc(N3CCN(C)CC3)cc2)cc1Br	i	-0.82	-3.0%
38	N#CC1=C(N)Oc2n[nH]c(-c3cccs3)c2C1c1cccs1 (centres undefined)	i	-1.35	-0.9%
39	CSc1nnc2c3cc(C)ccc3n(Cc3ccccc3)c2n1	i	-0.7	7.6%
40	CC(=O)c1cc(F)c(N2CCOCC2)cc1C	i	.	-2.5%
41	Cc1ccc2[nH]c3c(N4CCOCC4)ncnc3c2c1	i	-0.41	2.3%
42	C=C(C)Cn1c(SCCCO)nc2c1c(=O)[nH]c(=O)n2C	i	-1.58	-1.5%
43	CCOC(=O)c1ccc(NC(=O)CCC2COc3ccccc3O2)cc1 (centres undefined)	i	.	3.5%
44	CCC(Sc1ncccc1C(=O)O)C(=O)N1CCCC1 (centres undefined)	i	0.13	2.4%
45	Cc1cccc(NC(=O)C2C3C=CC(C4CC34)C2C(=O)O)c1 (centres undefined)	i	.	1.5%

Next compounds
nr	SMILES	MT1-MMP promoter	WNV protease inh	Hsc70 ATP site
46	N#CCCN/N=C(\Cc1nc2ccccc2[nH]1)c1ccccc1	i	.	-0.5%
47	CCc1ccc(NC(=O)N(CCCOC(C)C)C2CCN(C(C)=O)CC2)cc1	i	0.59	1.0%
48	CCN(CCCNC(=O)C1CCN(S(=O)(=O)CC)CC1)c1cccc(C)c1	i	-0.2	-1.9%
49	CCCn1nnc(NC(=O)c2cccc(OCc3ccccc3)c2)n1	i	.	2.6%
50	Cn1cnc2c1c(=O)n(Cc1ccccc1)c(=O)n2C	i	-0.05	5.4%
51	Cc1cccc(Nc2ncccc2C(=O)O)c1C	i	-1.1	10.2%
52	Cc1noc(C)c1C(=O)Nc1sc(C)c(C)c1C#N	i	1.15	-1.6%
53	COc1cc(NC(=O)c2cc(-c3cccc(O)c3)on2)cc(OC)c1OC	i	0.36	1.0%
54	O=C1c2ccncc2C(=O)N1C1CCCCC1	i	-1.02	-1.3%
55	COC(=O)C1=C(C)Nc2ncnn2C1c1ccco1 (centres undefined)	i	1.06	2.6%
56	CCCOc1ccccc1C1CC(=O)NC(C)=C1C(=O)OCC(C)C (centres undefined)	i	-1.04	6.7%
57	CSc1nc2ccc3nc(NC(=O)c4cccs4)sc3c2s1	i	0.44	-25.3%
58	O=C(CCn1ccc2ccccc21)Nc1ccc(N2CCOCC2)cc1	i	-0.95	0.9%
59	CC12CC(NC(=O)N1CCc1ccccc1)c1ccccc1O2 (centres undefined)	i	-0.6	-2.6%
60	O=C(Nc1ccc(Cl)cn1)c1cnn2cccnc12	i	0.08	3.1%

Remaining list, next part:
nr	SMILES	MT1-MMP promoter	WNV protease inh	Hsc70 ATP site
61	C1=C(CCNc2ncnc3nc[nH]c23)CCCC1	i	-0.35	0.1%
62	COc1cccc(N(C(=O)c2ccco2)C(C(=O)NC2CCCC2)c2cccnc2)c1 (centres undefined)	i	0.68	0.3%
63	COC(=O)c1ccc(COc2cccc(OC)c2)o1	i	0.65	-5.3%
64	C=CC(C)Sc1nc2c(c(=O)n(C)c(=O)n2C)n1Cc1ccccc1Cl (centres undefined)	i	-0.73	1.4%
65	Cc1ccc(N2C(=O)c3n[nH]c(C)c3C2c2ccccn2)cc1 (centres undefined)	i	-0.23	2.2%
66	COc1ccc(OC)c(NC(=O)Cc2coc3ccc4ccccc4c23)c1	i	.	-9.7%
67	O=C(NCCCN1CCCC1=O)c1ccc(Cl)c(NS(=O)(=O)c2ccc(F)cc2)c1	i	-0.45	-3.7%
68	CCC(C)(C)n1nnnc1C(c1cccs1)N1CCc2ccccc21 (centres undefined)	i	-0.53	-2.0%
69	CC(C)[C@H](NC(=O)NCc1ccc(Cl)cc1)C(=O)O	i	0.39	1.7%
70	CCC(=O)Nc1cc(C(F)(F)F)ccc1N1CCOCC1	i	-1.27	-4.8%
71	CC(Nc1ccccc1)c1cc(Cl)ccc1O (centres undefined)	i	.	-2.4%
72	Cc1cc(N(C)C)c(C#N)c(NCc2ccccc2)n1	i	-0.63	1.5%
73	CCOC(=O)N1CCN(CC(=O)Nc2cccc(Br)c2)CC1	i	.	-2.2%
74	COc1ccc(-c2noc(CSc3nc(N)c(-c4ccccc4)c(=O)[nH]3)n2)cc1	i	-0.87	2.4%
75	Nc1ccc(-c2nc3c(Cl)c(N)ccc3[nH]2)cc1	i	1.41	-1.9%

Copied from above: compounds 1 to 7
nr	SMILES	MT1-MMP promoter	WNV protease inh	Hsc70 ATP site
1	CCOC(=O)C1=C(C)C(c2ccccc2O)NC(=O)N1 (centres undefined)	i	.	4.0%
2	O=C(Oc1cccc(N2C(=O)CCC2=O)c1)C1CC(=O)N(c2ccc(Br)cc2)C1 (centres undefined)	i	0.44	3.3%
3	CCc1ccc(Nc2cc(C)nc3nc(C)nn23)cc1	i	-0.72	3.5%
4	O=S1(=O)N=C(N2CCc3ccccc3C2)c2ccccc21	i	1.01	3.4%
5	O=C(CNC(=O)c1ccco1)OC(C(=O)c1ccccc1)c1ccccc1 (centres undefined)	i	1.73	2.6%
6	Cn1c(=O)oc2cc(S(=O)(=O)N3CCN(c4cccc(Cl)c4)CC3)ccc21	i	0.58	-21.7%
7	CCCOc1ccc(Cn2c(O)cc(=O)[nH]c2=O)cc1	i	0.4	-10.5%

Values by screen from above.
Entries 9 to 15 in MT1-MMP promoter read i, i, i, i, i, i, i

Further compounds
nr	SMILES	MT1-MMP promoter	WNV protease inh	Hsc70 ATP site
76	O=C(NC1CCCC1)C1CCN(S(=O)(=O)N2CCCCC2)CC1	i	0.86	-5.8%
77	Cn1c(SCC(=O)NC2CCCCC2)nnc1-c1cccc(N)c1	i	.	2.7%
78	Cc1c(Br)cc(C(=O)N2CCCCCC2)c(C)c1C	i	.	-7.4%
79	CCN1CCc2c(C#N)c(N3CCOCC3)nc(NCc3ccccc3)c2C1	i	0.33	29.5%
80	Cc1ccc(S(=O)(=O)N(c2cccc(C)c2)C2CCS(=O)(=O)C2)cc1 (centres undefined)	i	.	2.2%
81	CC1(C)CC(=O)C(C=Nc2ccc(O)cc2)=C(O)C1	i	-0.67	3.0%
82	Cc1ccccc1NC1=NC(C)(C)N=C(N)N1	i	-0.9	-0.7%
83	O=C(NC1CCCCCC1)c1c(F)c(F)c(F)c(F)c1F	i	-0.7	-5.3%
84	CC(C)(C)c1ccc(OCCn2ccccc2=O)cc1	i	0.22	-1.2%
85	COc1ccc(Cc2c(O)nc(SC)n(C(C)=O)c2=O)cc1	i	1.69	-10.1%
86	O=C(c1ccccc1)c1cccn1CC(=O)N1CCN(C2CCCCC2)CC1	i	-0.08	2.9%
87	CCOC(=O)c1cc(C)n(CCCN2CCOCC2)c1C	i	0.29	3.5%
88	CCCC(=O)Nc1nc2ccc(NC(=O)c3ccc(Br)o3)cc2s1	i	-1.12	-0.3%
89	CCN1C(=O)/C(=C\N(C)C)c2ccccc21	i	.	0.2%
90	Cn1ncc2c(N3CCOCC3)ncnc21	i	0.35	-0.3%

Going on with the list.
nr	SMILES	MT1-MMP promoter	WNV protease inh	Hsc70 ATP site
91	CC(=O)OC1CC(C)(C)N(OC(=O)CCCN2C(=O)c3ccccc3C2=O)C(C)(C)C1	i	-0.92	-6.0%
92	CC(=O)Nc1ccc(S(=O)(=O)N2CCOCC2)cc1	i	.	-2.2%
93	O=C(C1=C(O)C(=O)N(CCOCCO)C1c1cccs1)c1cccs1 (centres undefined)	i	1.48	-2.1%
94	CCc1nc(SCC(=O)N2CCN(c3ccccc3)CC2)c2c(=O)n(C)c(=O)n(C)c2n1	i	-0.06	-6.0%
95	O=C(CN1CCCCCC1)NCCc1ccc(F)cc1	i	0.65	-3.9%
96	CCCCN1CC(O)=C(c2nc3ccccc3[nH]2)C1=N	i	0.38	-1.0%
97	COc1cc(S(=O)(=O)n2c(C)nc3ccccc32)ccc1F	i	0.00978	-1.1%
98	COc1ccccc1NC(=O)Cn1nnc(C(=O)Nc2ccccc2)c1N	i	-1.15	-0.2%
99	O=C(NCc1ccccc1)NC1CC2CCC(C1)N2Cc1ccco1 (centres undefined)	i	-0.85	-4.2%
100	CCC(C(=O)OCC(=O)Nc1c(C)n(C)n(-c2ccccc2)c1=O)c1ccccc1 (centres undefined)	i	0.45	-1.5%
101	COc1ccc(C2c3c(ncn(CCN4CCOCC4)c3=N)Oc3ccc4ccccc4c32)cc1 (centres undefined)	i	.	-1.3%
102	CC1Cc2cc(/C(O)=C3/C(=O)C(=O)N(CCCn4ccnc4)C3c3ccncc3)ccc2O1 (centres undefined)	i	.	1.7%
103	O=C(Nc1nnc(SCc2c(Cl)cccc2Cl)s1)C1CCCO1 (centres undefined)	i	.	-7.1%
104	COC(=O)c1cc(COc2ccc3c4c(c(=O)oc3c2)CCCC4)c(C)o1	i	-0.79	-1.4%
105	COc1cc(C2c3c(oc4ccccc4c3=O)C(=O)N2Cc2ccncc2)ccc1O (centres undefined)	i	-0.3	5.6%
106	CC12CC3CC(C)(C1)CC(CN1CCOCC1)(C3)C2	i	.	-0.2%
107	O=C(OCC(=O)N1CCc2ccccc21)c1ccc(Cl)nc1	i	.	1.8%
108	c1ccc(C2=Nc3ccccc3SC2c2nc3ccccc3[nH]2)cc1 (centres undefined)	i	.	7.3%

Compound activity from PubChem.

No enrichment for hits. Share with any hit: about 0.87%.
